Mtb bLac sens = beta-lactam sensitization of Mtb H37Rv | M. tuberculosis H37Rv growth with meropenem, percent inhibition; hits of this screen are not shown here | inhibition, % at 25 µM | 0.27% of 330,000 active;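 active = about 74% or more and at least 40 points above the plate without the antibiotic, then above 30% in a dose series; inconclusive = first-round hits that could not be retested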;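 note: growth measured after seven days incubation then overnight dye step; 0% = bacteria only wells and 100% = bacteria with antibiotic; twin plates without the antibiotic show which effects depend on it; some results filed as inactive read as strong as hits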
Mtb H37Rv = M. tuberculosis H37Rv growth inhibitors, H37Rv strain (AID 1626); M. tuberculosis H37Rv growth inhibition; higher % means a stronger effect; 0.95% of 220,000 active; inhibition, % at 10 µM; hits with a dose series show IC50 in µM;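 active = confirmed in a dose series; inconclusive = inhibition above 80% but not taken into the dose series; inactive = below 80% or under 30% at every dose of the series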;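 note: bacteria incubated seven days before Alamar blue readout; 0% = bacteria only wells and 100% = bacteria with antibiotic wells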
RecA splice inh = blocks M. tuberculosis RecA intein splicing | P9WHJ3 | cell-free RecA intein splicing, fluorescence | inhibition, %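 (about 9 µM by stock and volumes)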 | 0.75% of 290,000 active | AID 2221; in the data active = inhibition above about 30%; inconclusive = no clear call, values can overlap the other calls;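 note: 0% = vehicle wells and 100% = reference inhibitor control wells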
Target sequence (P9WHJ3 whole entry, looked up, canonical isoform): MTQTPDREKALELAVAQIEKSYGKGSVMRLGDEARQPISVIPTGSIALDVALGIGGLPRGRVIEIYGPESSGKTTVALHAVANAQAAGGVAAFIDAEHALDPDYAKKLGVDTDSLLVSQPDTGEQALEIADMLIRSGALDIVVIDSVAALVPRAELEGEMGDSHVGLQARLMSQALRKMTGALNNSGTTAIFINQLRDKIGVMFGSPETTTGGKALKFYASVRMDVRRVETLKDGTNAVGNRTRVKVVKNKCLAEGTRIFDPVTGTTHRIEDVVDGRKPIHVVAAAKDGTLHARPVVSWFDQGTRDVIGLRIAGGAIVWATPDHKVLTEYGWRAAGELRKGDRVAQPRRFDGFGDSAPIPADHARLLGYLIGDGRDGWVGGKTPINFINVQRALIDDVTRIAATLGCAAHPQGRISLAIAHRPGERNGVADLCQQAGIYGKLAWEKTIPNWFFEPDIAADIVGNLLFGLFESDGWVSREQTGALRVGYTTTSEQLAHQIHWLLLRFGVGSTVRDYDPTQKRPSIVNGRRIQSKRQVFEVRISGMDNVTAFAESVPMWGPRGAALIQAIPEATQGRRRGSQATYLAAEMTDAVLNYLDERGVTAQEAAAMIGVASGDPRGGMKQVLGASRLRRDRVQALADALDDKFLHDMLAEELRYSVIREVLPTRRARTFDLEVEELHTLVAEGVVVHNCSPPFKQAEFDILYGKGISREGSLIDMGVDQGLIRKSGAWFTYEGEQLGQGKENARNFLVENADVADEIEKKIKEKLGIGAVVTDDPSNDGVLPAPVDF
Arbovirus anti = arbovirus infection inhibition; arbovirus infection cell-based antiviral screen; inhibition, % at 10 µM; 0.37% of 200,000 active; AID 1251;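 active = inhibition from about 30%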;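 note: bluetongue infection of BSR cells; cell survival read as ATP light after 72 h; 0% = infected wells without compound and 100% = uninfected wells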
YopH PTP inh = blocks Yersinia enterocolitica YopH tyrosine phosphatase. fluorescence Ex485/Em525. inhibition, %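 (about 10 µM by stock and volumes)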. 0.16% of 140,000 active. AID 898;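 active = inhibition of 50% or more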;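 note: controls were vehicle for no effect and minimum signal wells for full effect; inactives centre near -20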
Arbovirus anti repeat = recorded beside Arbovirus anti, whose call it bears; inhibition, %; measured here: 10K subset replicate screen; many hits read low in the repeat;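 first of two repeat runs on a subset; 0% = infected and 100% = uninfected wells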
* = called active by the depositor; ? = inconclusive; . = not tested or not shown. Only part of the results is shown. The share of hits here may be higher or lower than overall.

The first 5 records, to show the layout:
SMILES	Mtb bLac sens	Mtb H37Rv	RecA splice inh	Arbovirus anti	YopH PTP inh	others
CCOc1ccc(NC(=O)c2ccc(N3CC4CC(C3)c3cccc(=O)n3C4)c(NC(=O)CCN3CCOCC3)c2)cc1 (centres undefined)	11	.	-0.9	.	.
NC(=O)c1cc2cc(Cl)ccc2o/c1=N/NC(=O)c1cccs1	-2	-4%	-0.6	.	.
CN(C)S(=O)(=O)c1ccc(NC(=O)CSc2ncnc3ccccc23)cc1	-5	5%	19	6	-17
CCCCCn1c(=O)c2ccccc2n2c(CCl)nnc12	90	3%	.	-19	.
CC(C)OC(=O)C1C(=O)CC(C)(O)C(C(=O)OC(C)C)C1c1cccc(O)c1 (centres undefined)	3	.	-0.8	3	-36

The list itself, from the start:
SMILES	Mtb bLac sens	Mtb H37Rv	RecA splice inh	Arbovirus anti	YopH PTP inh	others
CCOc1ccc(NC(=O)c2ccc(N3CC4CC(C3)c3cccc(=O)n3C4)c(NC(=O)CCN3CCOCC3)c2)cc1 (centres undefined)	11	.	-0.9	.	.
NC(=O)c1cc2cc(Cl)ccc2o/c1=N/NC(=O)c1cccs1	-2	-4%	-0.6	.	.
CN(C)S(=O)(=O)c1ccc(NC(=O)CSc2ncnc3ccccc23)cc1	-5	5%	19	6	-17
CCCCCn1c(=O)c2ccccc2n2c(CCl)nnc12	90	3%	.	-19	.
CC(C)OC(=O)C1C(=O)CC(C)(O)C(C(=O)OC(C)C)C1c1cccc(O)c1 (centres undefined)	3	.	-0.8	3	-36
O=c1[nH]c(Cl)ccc1CN1CCOCC1	1	.	-2.1	.	.
COc1ccc(C(Nc2ccccn2)c2c(NC(=O)c3ccco3)sc(C)c2C)cc1 (centres undefined)	4	3%	17	-9	-26
CC(C)CCNC(=O)CCn1c(=S)oc2ccccc21	3	-8%	2.2	2	.
CCc1nc(SCC(=O)N2CCCCCC2)c2c(=O)n(C)c(=O)n(C)c2n1	-3	.	-1.5	.	.
Cc1cc(SCC(=O)NN)c2cc(Br)ccc2n1	-1	2%	1.6	.	.
COc1ccc(C(C#N)Nc2ccccc2OC)cc1 (centres undefined)	9	-13%	0.3	3	-49	Arbovirus anti repeat=0
COc1ccc(-c2csc3nc[nH]c(=O)c23)cc1	2	-1%	-1.8	22	.
[O-][n+]1onc2c1CCC1N(O)CCC21O (centres undefined)	-15	-1%	-4.6	12	-28
COc1ccc(C)cc1NC(=O)CSc1nnc(-c2cc(C)[nH]n2)n1N	3	.	2.1	.	.
CC1(C)CC(=O)c2cc(N=C/C(C(=O)c3ccccc3)=C(\O)c3ccccc3)c(=O)oc2C1	2	2%	-6.6	2	.
CCSc1ccccc1C(=O)Nc1nc2ccccc2c(=O)[nH]1	4	3%	-1.4	-15	.
O=P(Cc1ccccc1)(c1ccccc1)c1ccccc1	-2	-3%	1.0	-4	-17
CC(C)C(NC(=O)c1ccc(S(=O)(=O)N2CCOCC2)cc1)c1nc2ccccc2[nH]1 (centres undefined)	2	-6%	-1.2	-2	-67	Arbovirus anti repeat=-3
CCCCN(CCCC)CCCNC(=O)C1CC(c2ccc(C(F)(F)F)cc2)=NO1 (centres undefined)	-10	-2%	1.5	.	.
O=C(Nc1ccccc1)NC1CCN(CCCN2C(=O)c3ccccc3C2=O)CC1	-6	-9%	-5.0	5	-36

Looked up by structure from the list above:
SMILES	Mtb bLac sens	Mtb H37Rv	RecA splice inh	Arbovirus anti	YopH PTP inh	others
[O-][n+]1onc2c1CCC1N(O)CCC21O (centres undefined)	-15	-1%	-4.6	12	-28
O=P(Cc1ccccc1)(c1ccccc1)c1ccccc1	-2	-3%	1.0	-4	-17
CC(C)C(NC(=O)c1ccc(S(=O)(=O)N2CCOCC2)cc1)c1nc2ccccc2[nH]1 (centres undefined)	2	-6%	-1.2	-2	-67	Arbovirus anti repeat=-3

More records follow:
SMILES	Mtb bLac sens	Mtb H37Rv	RecA splice inh	Arbovirus anti	YopH PTP inh	others
CCC(C)(C)NC(=O)C(OC(=O)c1ccco1)c1ccc(OC)cc1 (centres undefined)	-2	.	1.3	.	.
CC(=O)c1ccc2c(c1)C1C=CCC1C(C(=O)O)N2 (centres undefined)	.	-1%	.	2	.
CCOc1ccc(-n2nc(C(=O)NC3CCCCC3)c3ccccc3c2=O)cc1	8	.	-2.5	.	.
CCCNC(=O)c1ccccc1NC(=O)Cc1ccc(OC)c(S(=O)(=O)N2CCOCC2)c1	-4	.	1.8	.	.
N#CC1=C(N)Oc2cc(N)ccc2C1c1ccc(F)cc1 (centres undefined)	?	-6%	-4.9	-22	-3
O=[N+]([O-])c1ccc(/C=N/Nc2nc(N3CCCCC3)nc(N3CCCCC3)n2)cc1	34	7%	.	-16	.
CCOc1cccc(/C=N/NC(=S)NCCN2CCOCC2)c1O	76	5%	-7.8	-3	.
CCOc1ccc(N2C(=O)/C(=C/c3ccccn3)SC2=S)cc1	8	-9%	3.8	.	.
Cc1cc2oc(=O)cc(-c3cc4ccccc4o3)c2cc1OC(=O)N(C)C	4	.	1.4	.	.
O=C(NCc1ccc(F)cc1)C1CCC(=O)N1C1CCCCC1 (centres undefined)	-11	-7%	4.6	0	-21
CCn1cc(C(=O)OC(C)C(=O)Nc2c(C)n(C)n(-c3ccccc3)c2=O)c(=O)c2ccc(C)nc21 (centres undefined)	.	-1%	.	2	-18
COc1ccc(C)cc1S(=O)(=O)N1CCOCC1	0	-4%	-0.3	0	.
Cc1cc(C)n(-c2ccc(NC(=O)C3CCN(Cc4ccccn4)CC3)cc2)n1	-2	.	1.2	.	.
CCC(C)C(NC(=O)c1ccc(Cl)cc1)C(=O)O (centres undefined)	2	-12%	-2.9	-3	-24
CC(=O)c1cccc(NC(=O)C2CCN(C(=O)c3cccs3)CC2)c1	6	.	0.9	.	.
CCCCSC1(SCCCC)N=C(N)C2(C#N)C(c3ccccc3)NC(C)=CC12C#N (centres undefined)	-8	9%	-6.1	-5	-17
COc1ccc(-c2ccc(SCC(=O)NCC3CCCO3)nn2)cc1OC (centres undefined)	10	-4%	5.1	15	.
O=C1CC(c2ccccc2)CC(O)=C1C=NCCN1CCNCC1 (centres undefined)	-5	1%	0.7	5	-7	Arbovirus anti repeat=2
CC1CCCC(C)N1C(=O)COc1ccc(C(=O)N/N=C/c2ccc(C(=O)O)cc2)cc1 (centres undefined)	-1	-2%	.	16	.
Nc1c(C(=O)Nc2ccc(S(=O)(=O)N3CCCC3)cc2)sc2nc3cc4c(cc3cc12)CCC4	11	-3%	-4.9	-34	-1
COC(=O)c1cn(C(=O)c2cccs2)c2ccccc12	-7	-5%	.	-4	-1
COc1ccc(C2CC(c3ccc(OC)cc3)n3nc(N)nc3N2)cc1 (centres undefined)	3	-2%	0.2	1	-32	Arbovirus anti repeat=10
CC1(C)N(O)C2CCCCC2N1O (centres undefined)	-3	1%	-3.3	1	-52
CC1(C)COC(c2coc3ccccc3c2=O)OC1	4	-4%	-4.5	1	-25
COc1ccccc1CCNC1CCC(C)CC1 (centres undefined)	-3	7%	-1.1	-4	-12
CNS(=O)(=O)c1ccc(NC(=O)C(CCSC)NC(N)=O)cc1 (centres undefined)	-5	-10%	0.2	3	-41
CCOC(=O)c1ccc(Nc2nnc3nc(C)cc(C)n23)cc1	-3	-6%	-0.6	2	-10
Cc1ccc(C)c(CS(=O)(=O)c2cn(CC(=O)N3CCC(C)CC3)c3ccccc23)c1	1	3%	3.0	-8	-26
CC(=O)Nc1ccccc1NC(=O)CC(C)(C)C	-6	-16%	-0.7	10	-1
CCC(CC)C(=O)Nc1cccc(C(=O)Nc2ccc(S(=O)(=O)Nc3ccc(C)cc3)cc2)c1	56	23%	-0.4	-26	8
O=C(O)c1ccccc1-c1nc2ccccc2c(=O)n1O	8	0%	-1.4	18	.
CCCN1Cc2cccc(C(=O)NCc3ccc4c(c3)OCO4)c2C1=O	30	-8%	3.1	9	-25
O=P(NS(=O)(=O)c1ccc(Cl)cc1)(Oc1ccccc1)Oc1ccccc1	-3	-17%	2.9	-3	-23
O=C(N/N=C/c1ccc(Br)o1)c1cc([N+](=O)[O-])cc([N+](=O)[O-])c1	92	?	0.7	0	.
C=CCNC(=O)/C(C#N)=C/c1ccc(SC)cc1	8	5%	1.6	2	.
Cc1nc(NCCO)c(C#N)c2c1COC(C)(C)C2	1	3%	2.0	6	-6
CCCOc1ccc(N2C(=O)CC(SCC(N)C(=O)OCC)C2=O)cc1 (centres undefined)	3	.	-2.3	.	.
O=C(O)c1ccc(NC(=S)Nc2ccccc2)cc1	?	-12%	-3.5	-4	-34
COc1ccc(CCC(=O)NNC(=O)c2cc(Cl)ccc2OC)cc1	2	.	0.8	.	.
COCCNC(=O)CN1CCOc2ccccc21	0	-3%	0.1	-6	-54	Arbovirus anti repeat=-6

Arranged by count of non-hydrogen atoms (smallest number first): three of the compounds above.
SMILES	Mtb bLac sens	Mtb H37Rv	RecA splice inh	Arbovirus anti	YopH PTP inh	others
COCCNC(=O)CN1CCOc2ccccc21	0	-3%	0.1	-6	-54	Arbovirus anti repeat=-6
O=C(N/N=C/c1ccc(Br)o1)c1cc([N+](=O)[O-])cc([N+](=O)[O-])c1	92	?	0.7	0	.
O=P(NS(=O)(=O)c1ccc(Cl)cc1)(Oc1ccccc1)Oc1ccccc1	-3	-17%	2.9	-3	-23

The listing continues:
SMILES	Mtb bLac sens	Mtb H37Rv	RecA splice inh	Arbovirus anti	YopH PTP inh	others
CCC(C(=O)NCc1ccc(C)cc1)c1ccccc1 (centres undefined)	2	.	1.8	.	.
CCCCN1CNC(=S)N(CCc2ccc(OCC)c(OCC)c2)C1	-8	-6%	0.0	.	.
CCN(CC)C(=O)c1ccc(NS(=O)(=O)c2ccccc2)cc1	-6	-9%	-2.2	-3	-24
COCCN(CCOC)C(=O)CN1C(=O)NC2(CCCc3sccc32)C1=O (centres undefined)	-12	.	0.3	.	.
CSc1ccccc1C(=O)C1CCCN(S(=O)(=O)N(C)C)C1 (centres undefined)	1	9%	1.2	8	.
Cc1cccc(OCC(=O)Nc2ccc(C(=O)Nc3ccccc3C(=O)O)cc2)c1C	21	.	-0.9	.	.
CC[N+]1(C)CC2CCC(C)(C1)C2(C)C (centres undefined)	.	4%	-0.1	-1	.
Cc1cc(NC(=O)C2CC(c3c(F)cccc3Cl)=NO2)n(-c2ccccc2)n1 (centres undefined)	3	-1%	2.6	-3	.
CCSC1=NCN(CCCC(=O)O)CN1	-7	-16%	10	-7	-34
O=C(NCC(c1ccco1)N1CCN(c2ccccc2F)CC1)c1cccs1 (centres undefined)	-5	.	1.0	.	.
CC1=C(C(=O)N2CCOCC2)C(c2ccc(O)cc2)NC(=S)N1 (centres undefined)	-6	-4%	-3.3	-2	-20
O=C(c1ccc(Cl)cc1)N(Cc1cccs1)C1CCS(=O)(=O)C1 (centres undefined)	-5	-11%	-0.4	-1	1
CN(CC(=O)Nc1ccccc1Cl)C(=O)CSc1nnc(N)s1	-3	.	-1.3	.	.
CCC(=O)N(Cc1cc2ccccc2[nH]c1=O)c1ccccc1OC	-3	.	-3.6	.	.
CC(=O)Nc1ccc(NC(=O)C(C)OC(=O)c2cc(S(=O)(=O)N(C)C)ccc2N2CCCC2)cc1 (centres undefined)	-13	.	-3.2	.	.
CCN1CCc2nc(NC(=O)C(c3ccccc3)c3ccccc3)sc2C1	-10	2%	-5.6	-7	-4
N#C/C(=N\Nc1ccc([N+](=O)[O-])cc1)C(N)=S	-2	-1%	6.1	.	.
COc1cc(/C=N/NC(=S)NC2CC3C=CC2C3)cc(OC)c1OC (centres undefined)	3	4%	3.5	.	.
NC(=S)Nc1ccc(F)c(F)c1F	-6	-5%	0.6	.	.
O=C(Nc1ccccc1)C1=C[C@H](c2ccc3c(c2)OCO3)C[C@H](OCc2ccc(CO)cc2)O1	8	.	11	1	.
O=C(O)CCc1nn2cnc3sc4c(c3c2nc1=O)CCCC4	-8	-2%	-7.2	8	-19
O=C(NCCNC(=O)c1ccc(Br)o1)c1cccnc1	-2	.	1.3	.	.
CC1CCN(S(=O)(=O)c2ccc3c(c2)N(CC(=O)NCCCN2CCCC(C)C2)C(=O)CO3)CC1 (centres undefined)	-8	.	0.2	.	.
O=C(CCc1nnc2ccc(NCc3ccccc3Cl)nn12)NC1CCCCC1	6	.	-4.1	.	.
CCOC(=O)c1c(NC(=O)CSc2nnc(-c3c[nH]c4ccccc34)n2CC)sc2c1CCCC2	5	15%	-1.8	3	-12
Cc1ccc(/C=N/NC(=O)Cn2cnc3c2c(=O)n(C)c(=O)n3C)s1	3	-8%	-3.8	0	-31
Cc1csc(Nc2ccccc2C(F)(F)F)n1	-11	-3%	-1.4	-1	-149
Cc1ccc(C)c(S(=O)(=O)c2c(N)n(/N=C/c3ccco3)c3nc4ccccc4nc23)c1	31	-9%	-0.9	-3	5
COC(=O)c1ccc(NC(=S)NCCc2ccccc2C)cc1	43	43%	8.4	10	-21
N#Cc1cn(-c2cccc(C(F)(F)F)c2)c(=O)[nH]c1=O	-9	.	-2.5	.	.
COCCNC(=O)/C(C#N)=C/c1ccc(C)o1	-8	-2%	0.2	4	.
